Assay outcomes from PubChem.
SMN2 splice enh: increases expression of the SMN2 splice variant; HEK293 SMN2-luciferase splicing reporter, luminescence, 30-36 h; Potency, µM (doses to about 46.1 µM), for inactives: at the top dose activity change, positive = activation, most hits filed as activators; hit rate 2.8% among 210,000; also: % of control where 0% means no effect; nearly all actives have a fitted effect of over 55% in size
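HEK293 cells carry an SMN2 […]–luciferase reporter in which exon 7 inclusion puts luciferase in frame. Cells were plated 10-12 h before compound addition, then incubated 30-36 h at 37C. ONE-Glo luminescence was read; sodium butyrate at 4.5 mM final served as control.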
RECQ1 inh: RECQ1 (human) helicase inhibition. P46063. RECQ1 DNA unwinding, red fluorescence kinetic read. Potency, µM (series often up to 57.3 µM), for the others: at the highest dose activity, negative = inhibition, usual class: inhibitors. hit rate 0.54% among 240,000. AID 2549;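 also: plate controls were vehicle for no effect and no enzyme for full effect; nearly all actives have a fitted effect of over 30% in size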
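RECQ1T1 50 nM; forked duplex (20 bp + 30-nt ss tails) 200 nM, ATP 2 mM final; pH 8.0, 2 mM MgCl2, 2.5 ug/ml poly(dI-dC); 15 min compound preincubation; discontinuous kinetic read over 2 h at RT.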
Epigenetic reg: epigenetic control regulation, reporter derepression; murine LDR cells, GFP reporter derepression, 30 h; Potency, µM (doses to about 53.9 µM), inactives show top-dose GFP activation, usual class: activators; hit rate 0.2% among 280,000; AID 1865; also: % of control where 0% means no effect; nearly all actives have a fitted effect of over 60% in size
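Derepression of a silenced CMV-GFP reporter in murine LDR cells is scored by enumerating GFP-positive cells with a laser-scanning microplate cytometer after 30 hours of treatment at 37 C.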
IMPase Li cell: membrane-permeable IMPase blocker, potentiated with lithium; CHO-M1 cells, IP1 TR-FRET (IP-One), carbachol + lithium; hit rate 0.35% among 210,000; Potency, µM (doses to about 59.4 µM), inactives show at the top dose activity, negative = IMPase inhibition, actives largely listed as inhibitors;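 also: IP1 builds up when IMPase is blocked and the TR-FRET signal falls; plate controls were basal vehicle for no effect and high inhibitor control for full effect; nearly all actives have a fitted effect of over 50% in size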
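CHO-M1, 2000 cells/well, 16–30 h culture; cpd + low Li+, 30 min 37C; lysis with d2-IP1/Eu-anti-IP1 Ab, 10 min RT; TR-FRET 665/620 ratio and 620 channel; AC50 via Hill.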
Luc counter: Kinase-Glo luciferase inhibition (counter-screen); Potency, µM (series often up to 38.3 µM), without a hit: at the top dose activity change, negative = inhibition, usual class: inhibitors; AID 1379; hit rate 0.28% among 200,000; Kinase-Glo luciferase, ATP luminescence, 8 min; also: % is scaled to controls: 0 for no effect and ±100 for the full control effect; nearly all actives have a fitted effect of over 60% in size
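Kinase-Glo luciferase light output from ATP and luciferin was measured with 10 uM ATP, within the enzyme's linear range. Buffer: 50 mM imidazole pH 7.2, 50 mM KCl, 7 mM MgCl2, 0.01% Tween 20, 0.05% BSA; luminescence read after 8 min at ambient temperature.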
GoLoco inh red: RGS12 GoLoco-Gai1 interaction inhibition | AID 880 | hit rate 0.44% among 230,000 | P63096 | Potency, µM (top dose mostly 61.6 µM), without a hit: top-dose activity, negative = inhibition, usual class: inhibitors | Gai1:RGS12 GoLoco peptide FP, rhodamine, 10 min; active = well fitted inhibition curve with a large enough effect, not every such curve was filed as active; inactive = no such curve, though single readings can be large or run the other way; also: % is scaled to controls: 0 for no effect and ±100 for the full control effect; nearly all actives have a fitted effect of over 30% in size; many of its hits are not listed in these tables
Target sequence (P63096 whole entry, looked up): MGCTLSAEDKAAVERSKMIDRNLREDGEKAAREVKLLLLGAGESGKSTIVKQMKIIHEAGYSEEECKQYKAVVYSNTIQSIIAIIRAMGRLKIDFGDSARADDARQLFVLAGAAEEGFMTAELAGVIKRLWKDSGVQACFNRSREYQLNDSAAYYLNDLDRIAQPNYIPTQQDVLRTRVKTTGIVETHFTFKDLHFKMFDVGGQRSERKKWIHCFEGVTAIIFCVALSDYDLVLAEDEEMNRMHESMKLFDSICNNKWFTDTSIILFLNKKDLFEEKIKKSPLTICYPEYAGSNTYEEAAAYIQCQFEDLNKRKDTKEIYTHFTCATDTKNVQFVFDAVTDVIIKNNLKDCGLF
NPSR antag: blocks cAMP signaling of the human neuropeptide S receptor; Q6W5P4; CHO-NPSR cells, cAMP TR-FRET, antagonist mode; Potency, µM (top dose mostly 38.3 µM), for the others: top-dose activity change, negative = inhibition, usual class: inhibitors; hit rate 1% among 220,000; AID 1461; also: % is scaled to controls: 0 for no effect and ±100 for the full control effect; nearly all actives have a fitted effect of over 50% in size; many of its hits are not listed in these tables
Target sequence (Q6W5P4 whole entry, looked up): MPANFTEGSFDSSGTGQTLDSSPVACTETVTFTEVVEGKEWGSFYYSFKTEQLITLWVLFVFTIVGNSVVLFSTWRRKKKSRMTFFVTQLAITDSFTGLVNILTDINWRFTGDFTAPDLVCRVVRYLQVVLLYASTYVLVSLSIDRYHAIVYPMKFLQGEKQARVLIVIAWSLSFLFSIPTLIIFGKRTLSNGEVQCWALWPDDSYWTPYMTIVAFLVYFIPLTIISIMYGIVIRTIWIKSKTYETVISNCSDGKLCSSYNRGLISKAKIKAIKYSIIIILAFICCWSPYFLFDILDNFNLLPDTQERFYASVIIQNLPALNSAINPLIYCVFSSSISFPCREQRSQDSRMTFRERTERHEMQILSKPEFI
* = called active by the depositor; i = inactive; ? = inconclusive; nt = no result given; & = joins results of further samples; [ ] = another dose, or the depositor's remark. Unless noted, calls follow the shape of the dose curve; as a rule, active = well fitted curve in the direction sought with a large enough effect; inconclusive = small, poorly fitted or top-dose-only effect, or another doubt; inactive = no such curve, though single readings can be large; an effect the other way counts as inactive or inconclusive. Potency is read from the fitted curve at half-maximal effect. Not all compounds are listed; count on the stated rates, not on these rows.

Key to letters: A = SMN2 splice enh; B = RECQ1 inh; C = Epigenetic reg; D = IMPase Li cell; E = Luc counter; F = GoLoco inh red; G = NPSR antag
1) Cn1c(=O)c(C(=O)Nc2ccccc2S(N)(=O)=O)c(O)c2ccccc21
  A = nt; B = -10%; C = -0.3%; D = nt; E = nt; F = 6%; G = -1%
2) COc1ccc2c(C)cc(=S)[nH]c2c1
  A = 14%; B = -4%; C = -1.3%; D = ?; E = 3%; F = 4%; G = -38%
3) O=S1(=O)N=C(N/N=C/c2ccccn2)c2ccccc21
  A = -6%; B = -6%; C = -1.1%; D = 13%; E = 0%; F = 7%; G = 6%
4) O=C(C(c1ccccc1)c1ccccc1)N1CCN(Cc2ccco2)CC1
  A = 2%; B = -7%; C = -0.8%; D = -3%; E = 0%; F = -6%; G = -3%[46.1 µM]
5) C=CCc1cc(Cl)ccc1OCCCNC(C)C
  A = -17%; B = -5%; C = -2.2%; D = 2%; E = -1%; F = -3%; G = 7%
6) CCCOc1ccc(OCCOCCN2CCc3ccccc3C2)cc1
  A = 9%; B = -16%; C = -0.2%; D = 6%[38.3 µM]; E = -2%; F = -8%; G = -7%[46.1 µM]
7) CC1=NN(c2cccc(Cl)c2)C(=O)C1
  A = nt; B = 1%; C = -0.9%; D = nt; E = nt; F = 1%; G = 6%
8) Cc1cccc(-n2ncc3c(NC4CCCCC4)ncnc32)c1
  A = ?; B = 6%; C = 1.0%; D = 11%; E = -1%; F = -14%; G = ?
9) O=C(Oc1ccc(N(C(=O)c2ccncc2)S(=O)(=O)c2ccc(Cl)cc2)cc1)c1ccncc1
  A = nt; B = i; C = -0.9%; D = nt; E = nt; F = 0%; G = -8%
10) COC(=O)c1c(C)oc2ccc(N(C(=O)c3ccncc3)S(=O)(=O)c3ccccc3)cc12
  A = -22%; B = -12%; C = -1.1%; D = 15%[38.3 µM]; E = 0%; F = 0%; G = -19%[46.1 µM]
11) O=c1c2ccccc2oc2cc(O)c(C3COCC(CO)C(O)C(O)C3O)c(O)c12 (stereo unspecified)
  A = nt; B = -8%; C = 3.0%; D = 2%; E = 1%; F = -4%; G = nt
12) COC(=O)c1ccc(NC(=O)C(=O)N2CCCC2)cc1
  A = ?; B = i; C = -1.5%; D = 16%[38.3 µM]; E = -10%; F = -5%; G = 2%[46.1 µM]
13) CC(=O)c1cccc(NC(=O)CN(C)Cc2ccc(OC(F)F)cc2)c1
  A = nt; B = -4%; C = -0.3%; D = nt; E = nt; F = -7%; G = 9%
14) COCCN=C1NN=C(c2cc(C)n(CC3CCCO3)c2C)CS1 (stereo unspecified)
  A = -16%; B = -11%; C = -0.1%; D = 10%; E = -6%; F = 10%; G = -16%
15) CC(=O)Nc1nc(C)c(Oc2ccc(C)cc2)c(=O)[nH]1
  A = nt; B = 0%; C = 5.1%; D = nt; E = nt; F = -1%; G = 3%
16) Cc1nn(-c2ccccc2)c(C)c1/C=N/NC(=O)c1cc(-c2cccc3ccccc23)n[nH]1
  A = 4%; B = 5%; C = -1.0%; D = 19%; E = 0%; F = 14%; G = -13%
17) CCOC(=O)C1=C(C)NC2=C(C(=O)CC(C)(C)C2)C1c1ccc(O)c(OCC)c1 (stereo unspecified)
  A = nt; B = -8%; C = -1.1%; D = nt; E = nt; F = 10%; G = -15%
18) O=c1[nH]c(Cc2ccccn2)nc2scc(-c3ccc(Cl)cc3)c12
  A = -38%[inhibitor]; B = i; C = 0.9%[10.1 µM]; D = 4%; E = -1%; F = 42%[activator]; G = 5%
19) CC1CCN(CC(=O)NCCc2ccc(F)cc2)CC1
  A = nt; B = -4%; C = 4.0%; D = 2%; E = 1%; F = 1%; G = -11%
20) O=C(c1ccco1)N1CCC(N2CCN(c3ccccc3)CC2)CC1
  A = nt; B = -10%; C = 1.7%; D = nt; E = nt; F = -1%; G = 11%
21) O=Cc1ccc(OC(=O)c2cccnc2)cc1
  A = -8%; B = 17%; C = -4.0%; D = 3%; E = 0%; F = -5%; G = 22%
22) CCOc1cccc(/C(O)=C2/C(=O)C(=O)N(CCOC)C2c2ccco2)c1 (stereo unspecified)
  A = 3%; B = 0%; C = -1.1%; D = 6%[38.3 µM]; E = 2%; F = 1%; G = -15%[46.1 µM]
23) COC(=O)c1cc2c(ccn2-c2ccc(F)cc2)n1Cc1ccc(C#N)cc1
  A = -26%; B = -6%; C = -3.2%; D = 27%; E = 0%; F = 0%; G = -19%
24) CCC(C)NCCCCOc1ccc(Br)cc1 (stereo unspecified)
  A = -22%; B = -3%; C = -1.6%; D = 5%; E = -3%; F = -4%; G = 9%
25) C[C@H](NC(=O)c1nc[nH]c1C(=O)N[C@@H](C)c1ccccc1)C(=O)OC(C)(C)C
  A = nt; B = -11%; C = 1.5%; D = 15%; E = nt; F = -2%; G = 21%

In another format: seven of the compounds above.
cpd	structure	SMN2 splice enh	RECQ1 inh	Epigenetic reg	IMPase Li cell	Luc counter	GoLoco inh red	NPSR antag
1	Cn1c(=O)c(C(=O)Nc2ccccc2S(N)(=O)=O)c(O)c2ccccc21	nt	-10%	-0.3%	nt	nt	6%	-1%
2	COc1ccc2c(C)cc(=S)[nH]c2c1	14%	-4%	-1.3%	?	3%	4%	-38%
3	O=S1(=O)N=C(N/N=C/c2ccccn2)c2ccccc21	-6%	-6%	-1.1%	13%	0%	7%	6%
4	O=C(C(c1ccccc1)c1ccccc1)N1CCN(Cc2ccco2)CC1	2%	-7%	-0.8%	-3%	0%	-6%	-3%[46.1 µM]
5	C=CCc1cc(Cl)ccc1OCCCNC(C)C	-17%	-5%	-2.2%	2%	-1%	-3%	7%
6	CCCOc1ccc(OCCOCCN2CCc3ccccc3C2)cc1	9%	-16%	-0.2%	6%[38.3 µM]	-2%	-8%	-7%[46.1 µM]
7	CC1=NN(c2cccc(Cl)c2)C(=O)C1	nt	1%	-0.9%	nt	nt	1%	6%

Remaining list, next part:
Key to letters: A = SMN2 splice enh; B = RECQ1 inh; C = Epigenetic reg; D = IMPase Li cell; E = Luc counter; F = GoLoco inh red; G = NPSR antag
26) N#Cc1cnc(SCC(=O)NNC(=O)COc2cccc3ccccc23)nc1N
  A = -16%; B = -9%; C = 0.0%; D = 3%; E = 1%; F = 11%; G = 13%
27) Cn1c(=O)c(C(=O)NC2CCCCCCC2)c(O)c2ccccc21
  A = 4%; B = i; C = 0.8%; D = 13%[38.3 µM]; E = -2%; F = 1%; G = 0%[46.1 µM]
28) CC(C)CCNC(=O)NC(=O)COC(=O)/C=C/c1cccc([N+](=O)[O-])c1
  A = 8%; B = 0%; C = -1.3%; D = 0%; E = 4%; F = -5%; G = -1%
29) O=c1c2ccccc2nc2c3ccccc3c(NCCO)nn12
  A = -12%; B = i; C = -4.3%; D = -7%; E = 4%; F = 15%; G = 1%
30) CC(C)Oc1cccc(-c2cc(C(=O)N3CCN(c4ncccn4)CC3)c3ccccc3n2)c1
  A = 29%; B = i; C = 7.7%; D = -1%[38.3 µM]; E = -1%; F = 6%; G = ?
31) Cc1cc(OCCCn2ccnc2)cc(C(C)C)c1
  A = -7%; B = -8%; C = -2.4%; D = 16%; E = 0%; F = -3%; G = 13%
32) COCCCN1C(=O)c2[nH]nc(-c3ccccc3O)c2C1c1cccc(Cl)c1 (stereo unspecified)
  A = -20%; B = -1%; C = -1.7%; D = 12%[38.3 µM]; E = 0%; F = 7%; G = -23%[46.1 µM]
33) Cc1[nH]n(C)c(=O)c1C(=O)c1c(-c2c(Cl)cccc2Cl)noc1C
  A = nt; B = -14%; C = 4.3%; D = nt; E = nt; F = 7%; G = 21%
34) O=C(CCS(=O)(=O)Cc1ccccc1)Nc1nc2c(s1)CCCC2
  A = 4%; B = -12%; C = -1.1%; D = 27%[38.3 µM]; E = 1%; F = 5%; G = 19%[46.1 µM]
35) FC(F)(F)c1ccccc1C1C2=C(Nc3ncnn31)c1ccccc1CCC2 (stereo unspecified)
  A = 67%; B = 2%; C = 3.6%; D = 19%[38.3 µM]; E = 1%; F = -10%; G = -20%[46.1 µM]
36) CC(C)N1C(=O)/C(=C\c2nc3ccccc3c(=O)[nH]2)c2ccccc21
  A = -10%; B = -9%; C = 17%; D = 21%; E = -1%; F = -114%; G = -50%
37) Cc1ccc(CN2CCN(C(=O)c3ccncc3)CC2)cc1
  A = nt; B = 5%; C = 3.1%; D = 4%; E = -1%; F = 3%; G = -13%
38) COc1ccc(C(=O)N2CCn3c(C)ccc3C2C)cc1 (stereo unspecified)
  A = 3%; B = -25%; C = -0.1%; D = 5%; E = 0%; F = 19%; G = -16%
39) Cc1ccc(-c2nc3cnccn3c2Nc2ccc3c(c2)OCO3)cc1
  A = -2%; B = -1%; C = 0.0%; D = 31%[activator][38.3 µM]; E = 1%; F = -7%; G = -10%[46.1 µM]
40) CCOC(=O)C(C(C)C)C(N)Cc1ccc(F)cc1 (stereo unspecified)
  A = -13%; B = -12%; C = 2.4%; D = 4%; E = 3%; F = -17%; G = 9%
41) CCOc1ccc(NC(=O)CC2Nc3ccccc3NC2=O)cc1 (stereo unspecified)
  A = 4%; B = 1%; C = 2.3%; D = 4%; E = -1%; F = 8%; G = 0%
42) CCOc1ccc(CN2CCN(S(=O)(=O)c3ccc(NC(C)=O)cc3)CC2)cc1
  A = -51%[inhibitor]; B = -15%; C = -5.5%; D = 5%; E = 2%; F = 0%; G = -7%
43) CCC(CC)N1CCN(CC2CC=CCC2)CC1 (stereo unspecified)
  A = -5%; B = i; C = 1.1%; D = 18%; E = 1%; F = -2%; G = 6%
44) CCN(C(=O)CN1CCN(c2ccc(O)cc2)CC1)c1c(N)n(Cc2ccccc2)c(=O)[nH]c1=O
  A = 1%; B = ?; C = -2.9%; D = 7%[38.3 µM]; E = 1%; F = -13%; G = -13%[46.1 µM]
45) CCOc1cccc2sc(=NC(=O)c3ccc(S(=O)(=O)N4CCOCC4)cc3)n(C)c12
  A = 11%&-4%; B = i; C = -2.1%&0.0%; D = -8%[38.3 µM]; E = 0%; F = -1%; G = -2%[46.1 µM]
46) COc1ccc(-c2cc(-c3nnc(COC(=O)c4ccncc4)o3)c3ccccc3n2)cc1OC
  A = -5%; B = -1%; C = ?; D = -3%; E = -2%; F = 42%[activator]; G = 12%
47) O=C(CN1C(=O)NC(c2ccccc2)(c2ccccc2)C1=O)Nc1cccnc1Cl
  A = 5%; B = i; C = 1.1%; D = 2%; E = -2%; F = -3%; G = -7%
